Screens: PubChem BioAssay, National Center for Advancing Translational Sciences (NCATS)
AID923: qHTS Assay for Allosteric/Competitive Inhibitors of Caspase-1: Spectroscopic Profiling in AFC Spectral Region | compound fluorescence, AFC spectral region (405/520 nm); almost no hit is shown here | AID 923, 2007 | Potency, µM (top dose mostly 57.5 µM), for the others: at the highest dose fluorescence increase, usual class: activators | 75,000 tested, 1.1% active; active means well fitted activation curve with a large enough effect; inconclusive means small, poorly fitted or top-dose-only effect;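 further: potency means the concentration at half of the fitted maximal effect; 0% is about no effect; scaled to a free AFC standard on each plate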
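Baseline compound fluorescence (AFC region, 405 nm ex/520 nm em) taken from the intercept of kinetic reads with 50 nM caspase-1 and 5 uM Ac-WEHD-AFC; normalized to an on-plate AFC standard curve; compounds titrated up to 57 uM.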
A488 autofl: qHTS Assay for Spectroscopic Profiling in A488 Spectral Region | AID 591, 2007 | 59,000 tested, 0.1% active | max dye equivalency, M | compound autofluorescence, A488 spectral region, dye equivalency; stronger effect = higher value; active = above 10 nM dye equivalent; inconclusive = 1 to 10 nM; inactive = 1 nM or less; about half of its hits are not listed in these tables;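 further: highest value over a series up to 38 µM; compound alone in buffer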
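Compounds pin-transferred into 100 mM Tris buffer, pH 8.0, incubated 15 min at room temperature, then imaged with 480 nm excitation/540 nm emission filters. Fluorescence converted to Alexa 488 dye-equivalent concentration via an on-plate six-point A488 standard curve.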
Resorufin fluor: qHTS Assay for Spectroscopic Profiling in Resorufin Spectral Region | Compound fluorescence, resorufin region 547/598 nm, buffer; stronger effect = higher value | max dye-equivalent concentration, M | 59,000 tested, 0.04% active; active = above 10 nM dye equivalent; inconclusive = 1 to 10 nM; inactive = 1 nM or less; a few of its hits are not listed in these tables; further: highest value over a series up to 38 µM
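Dye-equivalent concentration values derive from comparing each well's 547/598 nm fluorescence against resorufin standards included on every plate. Incubation was 15 min at room temperature in 100 mM Tris, pH 8.0.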
TSHR ag: qHTS Assay for Agonists of the Thyroid Stimulating Hormone Receptor; AID 926, 2007; Potency, µM (series often up to 57.1 µM), inactives show at the highest dose activation, hits mostly activators; Thyrotropin receptor (Homo sapiens), P16473; 73,000 tested, 0.48% active; HEK293-CNG-TSHR cells (CNG channel as cAMP sensor), membrane potential dye, cAMP; active = well fitted activation curve of enough size with the parental cells flat; inconclusive = any curve in the parental cells; inactive = parental cells flat and receptor cells flat or falling; further: potency means the concentration at half of the fitted maximal effect; % of control where 0% means no effect; weak receptor curves with flat parental cells got no call and are not listed
Target sequence (P16473 whole entry, looked up): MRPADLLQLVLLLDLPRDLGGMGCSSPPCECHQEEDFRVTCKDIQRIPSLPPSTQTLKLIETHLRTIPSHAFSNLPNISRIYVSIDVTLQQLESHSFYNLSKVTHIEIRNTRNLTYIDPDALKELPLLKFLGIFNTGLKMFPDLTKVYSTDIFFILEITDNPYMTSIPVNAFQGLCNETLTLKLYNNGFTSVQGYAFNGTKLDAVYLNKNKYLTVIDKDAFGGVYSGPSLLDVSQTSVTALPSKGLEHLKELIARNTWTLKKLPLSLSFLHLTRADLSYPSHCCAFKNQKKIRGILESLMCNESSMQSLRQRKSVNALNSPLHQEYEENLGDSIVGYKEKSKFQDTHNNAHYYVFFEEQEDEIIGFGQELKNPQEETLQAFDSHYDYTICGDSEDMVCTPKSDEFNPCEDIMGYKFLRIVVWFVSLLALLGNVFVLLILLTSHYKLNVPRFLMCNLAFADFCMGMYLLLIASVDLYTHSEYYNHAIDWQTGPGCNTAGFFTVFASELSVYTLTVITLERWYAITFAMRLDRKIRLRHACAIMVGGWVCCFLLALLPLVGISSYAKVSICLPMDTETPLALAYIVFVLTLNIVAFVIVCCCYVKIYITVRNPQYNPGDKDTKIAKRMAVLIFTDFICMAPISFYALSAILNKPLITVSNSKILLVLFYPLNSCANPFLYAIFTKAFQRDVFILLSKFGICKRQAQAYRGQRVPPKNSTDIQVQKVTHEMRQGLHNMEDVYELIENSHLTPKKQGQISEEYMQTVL
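HEK 293 cells stably expressing TSHR and a modified CNG channel, with CNG-only parental cells as counterscreen, were preloaded 60 min at room temperature with membrane potential dye containing 100 uM RO 20-1724. Compound exposure was 30 min, and depolarization was read as fluorescence at 590 nm.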
A647 autofl: qHTS Assay for Spectroscopic Profiling in A647 Spectral Region. AID 592, 2007. Compound fluorescence, A647 channel (570/671 nm), Tris buffer. 59,000 tested, under 10 active. max dye-equivalent concentration, M; active means above 1 µM dye equivalent; inconclusive means 0.1 to 1 µM; inactive means 0.1 µM or less;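 further: values scaled relative to a standard on each plate; highest value over a series up to 38 µM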
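Fluorescence read (570 nm ex, 671 nm em) after 15 min RT incubation of compounds in 100 mM Tris buffer, pH 8.0; values expressed as dye-equivalent concentration against a six-point A647 standard series on each plate.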
Starred values were filed as active, the others as inactive; i = inactive; u = inconclusive; x = not tested or not shown; [ ] = remark or other dose.

Start of the listing, in advance:
SMILES | AID923 | A488 autofl | Resorufin fluor | TSHR ag | A647 autofl
O=C1c2ccccc2C(=O)c2c1ccc(N1C(=O)c3ccccc3C1=O)c2-c1c(N2C(=O)c3ccccc3C2=O)ccc2c1C(=O)c1ccccc1C2=O | x | i | i | 1%[11.4 µM] | 1e-09
Cc1ccc(NCc2nnc(SCCN3CCCCC3)n2CC2CCCO2)cc1Cl (stereo not drawn) | 0.2% | i | i | u | 1e-09

The whole of this part, repeating the preview:
SMILES | AID923 | A488 autofl | Resorufin fluor | TSHR ag | A647 autofl
O=C1c2ccccc2C(=O)c2c1ccc(N1C(=O)c3ccccc3C1=O)c2-c1c(N2C(=O)c3ccccc3C2=O)ccc2c1C(=O)c1ccccc1C2=O | x | i | i | 1%[11.4 µM] | 1e-09
Cc1ccc(NCc2nnc(SCCN3CCCCC3)n2CC2CCCO2)cc1Cl (stereo not drawn) | 0.2% | i | i | u | 1e-09
COc1ccc2c(CCNC(=O)c3ccco3)c[nH]c2c1 | 2.5% | i | i | -3% | 3.1e-08
Cc1ccccc1S(=O)(=O)Nc1nc2ccccc2nc1N1CCOCC1 | 2.5% | i | i | x | 3e-09
O=C(Nc1cccnc1)c1ccc2c(c1)OCO2 | 1.7% | i | i | -3% | 3.1e-08
COc1ccc(OC)c(NC(=O)COc2ccc(S(=O)(=O)NC(C)C)cc2)c1 | -1.6% | i | i | 10% | 3.5e-08
Cc1cc(C)nc(-n2nc(C)cc2Nc2ccccc2)n1 | -2.6% | i | i | 9% | 7e-09
CCCOC(=O)c1ccc(NC(=O)C2CCCO2)cc1 (stereo not drawn) | -1.3% | i | i | 10% | 4e-09
CCOC(=O)c1ccc(-n2[nH]c(-c3ccccc3)cc2=O)cc1 | -1.9% | i | i | 1% | 1.1e-09
O=C(Oc1ccccc1)N1CCN(c2ccc(F)cc2)CC1 | -0.5% | x | x | 8%[11.4 µM] | x
CN(CC(=O)Nc1nc2ccccc2s1)S(=O)(=O)c1ccccc1 | 0.3% | i | i | 10% | 5.5e-09
COc1ccccc1OCC(=O)Nc1cccc(-c2nc3ccccc3o2)c1 | 1.7% | i | i | u | 3.2e-09
O=C(Cc1cccs1)N(c1ccc(Cl)cc1)C1C=CS(=O)(=O)C1 (stereo not drawn) | -0.6% | i | i | 0%[11.4 µM] | 3.2e-08
Cc1ccc(-c2nc3ncccc3o2)cc1NC(=O)c1ccco1 | 0.7% | i | i | -3% | 1.3e-08
CCC1=C/C(=C/N(C)c2ccccc2)C(=O)S1 | 7.6% | i | i | 11% | 5.2e-08
CCOC(=O)c1nn(-c2sc(C(=O)OC)c(C)c2C(=O)OC)cc1O | -0.3% | i | i | -5% | 3.6e-09
Cc1ccccc1NC(=O)CN1CCC(NC(=O)Nc2ccccc2)CC1 | 1.2% | i | i | -1% | 1e-09
Cc1ccc(N2CCN(S(=O)(=O)N(C)C)CC2)c(C)c1 | 2.4% | x | x | 22% | x
O=C1COc2ccc(C(=O)COC(=O)C3CCN(S(=O)(=O)c4cccs4)CC3)cc2N1 | 0.4% | i | i | 9% | 1.2e-08
CCN(CC)C(=O)CSc1nnc(-c2ccccn2)n1-c1ccc(C)c(C)c1 | -1.5% | i | i | 4% | 1e-09
O=C(Nc1cccnc1)c1ccc(COc2ccccc2Br)o1 | -4.4% | i | i | -2% | 2.2e-08
Clc1ccc(OCc2nn3c(-c4ccncc4)nnc3s2)cc1 | 1.6% | i | i | u | 1.9e-08
CC1=C(c2ccc(Cl)cc2)[N+](=O)C(C)(C)N1[O-] | x | i | i | x | 2.9e-09
Cc1nnc(SCC(=O)n2c3c(c4ccccc42)CCCC3)s1 | 0.8% | i | i | u | 3.8e-09
COc1ccc2c(c1)CCc1c(C(=O)N3CCc4ccccc4C3)noc1-2 | -0.6% | i | i | 29% | 3.8e-08
CCOc1ccc(-c2nnn(CC(=O)Nc3ccccc3OC)n2)cc1OCC | 2.2% | i | i | -4% | 2.5e-09
CCCNC(=O)c1cc(-c2ccc(Br)cc2)on1 | -0.2% | i | i | 5% | 9.6e-09
Cc1nn(-c2ccccc2)c(C)c1/C=N/O | 0.3% | x | x | 4% | x
Cc1ccc(N(CC(=O)N2CC(=O)Nc3ccccc32)S(=O)(=O)c2ccc3c(c2)OCCO3)cc1 | -0.1% | i | i | 7.9µM* | 2.5e-08
Cc1[nH]n(-c2ccccc2)c(=O)c1/C=N/O | 2.0% | x | x | 4% | x
Cc1occc1C(=O)NCc1cccs1 | 5.1% | x | x | 5% | x
Nc1cccc(S(=O)(=O)c2cccc(N)c2)c1 | -0.1% | i | i | -4% | 5e-09
CC(C)(C)OC(=O)N1CC=C2C(C#N)=C(N)C(C#N)(C#N)C(c3cccs3)C2C1 (stereo not drawn) | 18% | i | i | 9% | 4.1e-08
Cc1ccc(NC(=O)C2(N(CC(C)C)C(=O)Cn3nnnc3N)CCCCC2)cc1 | -1.4% | i | i | 1%[11.4 µM] | 2.4e-08
CCOc1c(Br)cc(CNc2ncn[nH]2)cc1OC | -1.6% | i | i | -2% | 4.1e-08
CCOC(=O)CSc1nc2sc(C)c(C)c2c(=O)n1C | -0.9% | x | x | u | x
COc1cc(C2N(c3ccccc3)CCN2c2ccccc2)ccc1OC(C)=O | 0.5% | x | x | 3.2µM* | x
COC(=O)[C@@]1(Cc2ccccc2)[C@H]2c3cc(C(=O)N(C)C)n(Cc4ccccc4)c3C[C@H]2CN1C(=O)c1ccccc1 | -1.0% | x | x | u | x
COC(=O)[C@@]1(Cc2ccc(OC)cc2)[C@H]2c3cc(C(=O)N(C)C)n(CCc4ccc(OC)c(Br)c4)c3C[C@H]2CN1C(=O)c1ccccc1 | 2.1% | x | x | u | x
CN(Cc1ccco1)c1ncnc2ccc(-c3ccccc3C(F)(F)F)cc12 | 2.8% | i | i | u | 1e-09
COc1ccc(CNC(=O)c2cnn3c(C(F)F)cc(C)nc23)cc1OC | 0.8% | x | x | 27% | x
Cc1c(C(=O)N2CCOCC2)sc2ncn(CC(=O)N3CCC(C)CC3)c(=O)c12 | 1.8% | i | i | 10%[11.4 µM] | 1e-09
O=C(CN1C(=O)CSc2ccccc21)Nc1ccc2c(c1)OCCO2 | 0.6% | i | i | -2% | 1e-09
O=C(OCCOc1ccc(Br)cc1)c1cnccn1 | 0.2% | i | i | -4% | 1e-09
CSc1cccc(NC(=O)C2CCN(S(C)(=O)=O)CC2)c1 | -0.1% | i | i | x | 2e-09
CCOc1ccccc1C(=O)NC(C)c1ccc2c(c1)OCO2 (stereo not drawn) | 2.9% | i | i | 17% | 4.7e-08
COc1cc(C(=O)NCc2nnc(SCC(=O)Nc3cccc(C)c3)o2)cc(OC)c1OC | 2.2% | i | i | 4%[11.4 µM] | 1e-09
CCCN1C[C@@H](CSC)C[C@H]2c3cccc4[nH]cc(c34)C[C@@H]21 | -1.2% | i | i | -20% | 1.2e-09
CC(C)OCCCNC(=O)c1ccc(N(C)S(C)(=O)=O)cc1 | 1.8% | i | i | -9% | 1e-09
Cc1nc2ccc(C(=O)O)cc2c2c1CC(C)S2 (stereo not drawn) | 1.9% | i | i | -4% | 5e-09
CCOC(=O)C1(c2csc(N)n2)COC(=O)C1 (stereo not drawn) | 0.7% | x | x | -4% | x
O=C(CC1=NCCNC(c2ccccc2)C1)c1ccccc1O (stereo not drawn) | 5.2% | i | i | 10% | 4.4e-08
Cn1c(C(=O)NCCCN2CCCC2=O)cc2c(=O)n(C)c3ccccc3c21 | 0.0% | x | x | -5% | x
Cn1c(-c2ccc3c(c2)OCO3)cnc1N | 0.8% | i | i | 4% | 4.4e-08
Cc1nn(C)c(C)c1CNC(=O)c1cc2n(n1)C(C(F)(F)F)CC(c1cccs1)N2 (stereo not drawn) | 2.6% | i | i | 11% | 4.1e-08
O=C(Nc1ccccc1)OCC1CCCN2CCCCC12 (stereo not drawn) | 0.4% | x | x | u | x
COC(=O)Nc1ccc(S(=O)(=O)N2CCCc3ccccc32)cc1 | 1.5% | i | i | u | 1e-09
CCSc1nnc(C)n1-c1ccc(C(=O)O)cc1 | 2.1% | i | i | -10% | 2.6e-09
CS(=O)(=O)N(CC(=O)NCc1ccc2c(c1)OCO2)Cc1ccc(Cl)cc1 | 1.4% | i | i | 27% | 1e-09
COc1ccc2sc(NC(=O)CC(C)C)nc2c1 | -3.4% | i | i | 8% | 3.7e-08

Next section:
SMILES | AID923 | A488 autofl | Resorufin fluor | TSHR ag | A647 autofl
COC(=O)CCN(c1ccccc1)S(=O)(=O)c1ccc(OC)cc1 | -0.7% | i | i | 9% | 1.3e-09
O=C(CCC1CCCCC1=O)c1ccccc1 (stereo not drawn) | -0.5% | i | i | 0% | 1e-09
CCS(=O)(=O)N1CCC[C@H]2CN3CCc4cc(OC)ccc4[C@@H]3C[C@@H]21 | 0.3% | x | x | 10% | x
NC(=O)c1ccc(-n2nnnc2SCC(=O)Nc2ccc(N3CCOCC3)c(Cl)c2)cc1 | -1.6% | i | i | x | 1.1e-08
CCCc1[nH]nc2c1C1(C(=O)N(CC)c3ccccc31)C(C#N)=C(N)O2 (stereo not drawn) | 2.3% | i | i | -1% | 1.4e-08
CCn1c(N)c(C(=O)NCCCOC)sc1=S | 0.1% | i | i | 1% | 1.4e-08
CCc1ccccc1NS(=O)(=O)c1ccc(SC)cc1 | -0.3% | i | i | 25µM* | 1e-09
C[C@@H]1CCCC(CC(=O)O)(CC(=O)O)C1 | -0.1%[11.5 µM] | i | i | 1%[11.4 µM] | 1e-09
O=C(COc1ccc(S(=O)(=O)N2CCCC2)cc1)NCCC1=CCCCC1 | -1.6% | i | i | u | 3e-09
CC(=O)Nc1ccc(S(=O)(=O)N=S(C)C)cc1 | 2.6%[11.5 µM] | i | i | 3%[11.4 µM] | 1e-09
COc1ccc(C2C3=C(CC(C)(C)CC3=O)Oc3ncn(Cc4ccco4)c(=N)c32)cc1 (stereo not drawn) | 4.7% | i | i | u | 1.2e-09
COc1ccc(-c2ccc(-c3noc(-c4ccco4)n3)c(OC)n2)cc1 | 7.2% | i | i | 10% | 3.3e-09
O=S(=O)(c1cccc2c(I)cccc12)N1CCCNCC1 | -1.4% | i | i | x | 1e-09
O=C(CCCC(=O)N(CC(=O)NC1CCCC1)Cc1ccc2c(c1)OCO2)Nc1ccccn1 | -0.9% | i | i | 29% | 2.7e-08
COc1cccc(C2CC(c3ccc(C)cc3)n3ncnc3N2)c1 (stereo not drawn) | -2.9% | x | x | 11% | x
[O-][n+]1c2c(nn1-c1ccccc1Cl)-c1nonc1CC2 | -0.4% | i | i | 1% | 2.7e-08
O=Cc1ccc(CO)o1 | -0.3% | x | x | u | x
O=C(NCC1CCCO1)C1CC(c2ccc(Cl)c(Cl)c2)=NO1 (stereo not drawn) | -1.9% | i | i | 7% | 1.3e-08
CC12CN3CC(C)(CN(C1)C3c1ccc(Br)cc1)C2=O (stereo not drawn) | 5.6% | x | x | 0% | x
CC1Cc2nc(SCC(=O)Nc3ccccc3F)n(C)c(=O)c2S1 (stereo not drawn) | 1.0% | i | i | 5% | 1e-09

One compound at a time, from the list above.
Entry for CC1Cc2nc(SCC(=O)Nc3ccccc3F)n(C)c(=O)c2S1 (stereo not drawn) = AID923 = 1.0%; A488 autofl = i; Resorufin fluor = i; TSHR ag = 5%; A647 autofl = 1e-09
Entry for [O-][n+]1c2c(nn1-c1ccccc1Cl)-c1nonc1CC2 = AID923 = -0.4%; A488 autofl = i; Resorufin fluor = i; TSHR ag = 1%; A647 autofl = 2.7e-08
Entry for O=Cc1ccc(CO)o1 = AID923 = -0.3%; A488 autofl = x; Resorufin fluor = x; TSHR ag = u; A647 autofl = x

This is a subset, so the mix of outcomes need not match the whole.
